# Screens (PubChem)
# DUX4 txn inh – blocks DUX4-driven transcriptional activation | 0.8% of 37,000 active | AID 1224904 | activity change, negative = inhibition, % (test concentration not listed) | 293T-iDUX4 ZSCAN4-Gaussia luciferase reporter, 24 h; active compounds read low;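 active = -10% or lower and over 25 points stronger than a control reporter; inconclusive = -10% or lower with a smaller gap; inactive = above -10%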;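 also: 0% = median of neutral control wells and -100% = median of positive control wells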
# DUX4 txn inh difference – recorded beside DUX4 txn inh, whose call it bears; Gaussia minus Italica difference, %; measured here: selective DUX4 reporter inhibition;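 worked out from the two reporters; negative = selective loss of the DUX4 reporter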
# DUX4 txn inh control – further read-out of DUX4 txn inh, marked with its call; activity change, negative = inhibition, %; measured here: Italica tet-on control reporter;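 0 = neutral control and -100 = positive control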
# The depositor's hits bear a star; ? = inconclusive; . = no result given; & = joins results of further samples. The list is partial; rates above refer to the full screens.
SMILES,DUX4 txn inh,DUX4 txn inh difference,DUX4 txn inh control
C[C@@H]1CCCCO[C@H](CN(C)C(=O)CCC(F)(F)F)[C@@H](C)CN([C@@H](C)CO)C(=O)c2cc(NC(=O)CCCCCC(=O)Nc3ccccc3N)ccc2O1,6,4,1.4
COc1cccc(NC(=O)N2[C@@H]3CNC[C@H]2C3c2ccc(-c3cccc(OC)c3)cc2)c1 (some centres not stated),14&12,13&10,0.2&1.6
CCc1nc(N2[C@@H](C#N)[C@H](c3ccccc3-c3ccccc3F)[C@@H]2CO)sc1C,-2,3,-5.2
COCCN(C[C@H]1[C@H](c2ccccc2)[C@@H](CO)N1C(=O)C1CCC1)C(C)=O,?,.,.
COc1ccc2c3c(n(C)c2c1)[C@@H](CO)N(Cc1ccc(Cl)cc1)CC31CCN(CC2CC2)CC1,?,.,.
COc1ccc(C(=O)N2C[C@@H]3[C@H](c4ccccc42)[C@H](CO)N3Cc2ccc(Cl)cc2)cc1,-4,-2,-1.5
CCC(=O)N1C[C@H](O)COC[C@@H]2O[C@H](CC(=O)NC)CC[C@H]21,4,6,-2.3
Cc1noc(C)c1NC(=O)Nc1ccc2c(c1)C(=O)N(C)[C@H]1CC[C@H](CC(=O)Nc3ccccc3F)O[C@@H]1CO2,-1,-2,1.1
COc1ccccc1-c1cnc2c(c1)C(=O)N([C@@H](C)CO)C[C@@H](C)[C@@H](CN(C)Cc1cncnc1)O2,-5,-3,-2.2
COc1ccc2c3c(n(C)c2c1)[C@@H](CO)NCC31CCN(S(=O)(=O)c2ccccc2)CC1,4,11,-6.9
COc1cc(CN2CC3(CN(C(=O)c4ccc5c(c4)OCO5)C3)c3c(n(C)c4cc(OC)ccc34)[C@H]2CO)cc(OC)c1,?,.,.
C[C@@H]1CN([C@H](C)CO)C(=O)Cc2cc(NS(=O)(=O)c3cn(C)cn3)ccc2O[C@H]1CN(C)Cc1ccc2c(c1)OCO2,-6,-6,0.4
O=C(C[C@H]1CC[C@@H]2[C@H](COC[C@@H](O)CN2C(=O)Nc2ccccc2)O1)NC1Cc2ccccc2C1,-2,9,-11
COc1ccccc1NC(=O)N1CC(=O)N2[C@H](CO)[C@@H](c3ccc(C#CC(C)C)cc3)[C@H]2C1,1,4,-2.8
CCC(=O)N1CC2(C1)CN(CC1CCCCC1)[C@@H](CO)c1c2c2ccc(OC)cc2n1C,1,1,-0.3
COc1ccccc1CNC(=O)C[C@@H]1CC[C@@H]2[C@H](COC[C@@H](O)CN2Cc2ccc3c(c2)OCO3)O1,6,9,-2.6
COCC(=O)Nc1ccc2c(c1)[C@H]1C[C@H](CC(=O)NCc3ccccc3F)O[C@@H](CO)[C@H]1O2,5,8,-3.2
Cc1cccc(-c2ccc([C@@H]3[C@H]4CN(C(=O)c5ccccc5)CC(=O)N4[C@H]3CO)cc2)c1,?,.,.
COCC(=O)N1[C@H](CN(C)C(=O)c2cccnc2)[C@@H](c2ccccc2)[C@@H]1CO,-5,-4,-0.4
CN1C(=O)c2cc(NC(=O)Nc3ccccc3Cl)ccc2OC[C@H]2O[C@H](CC(=O)NCCCN3CCOCC3)CC[C@H]21,0,2,-1.9
Cn1cnc(S(=O)(=O)N2CC[C@@H]3[C@H]2c2cc(-c4ccccc4)ccc2N[C@@H]3CO)c1,7,0,7.1
CN1[C@@H]2c3ccc(C4=CCCCC4)c(=O)n3C[C@@H]2[C@@H](CO)[C@@H]1C(=O)NCc1ccccc1,-5,-2,-2.7
CN1C(=O)c2cc(NC(=O)C3CC3)ccc2OC[C@@H]2O[C@@H](CC(=O)NCCN3CCCC3)CC[C@H]21,3,-4,6.9
CN(C[C@H]1[C@H](c2ccccc2)[C@@H](CO)N1C(=O)c1ccccc1)C(=O)C1CCC1,-4,-8,3.8
O=C(Cc1ccccc1)N1CC[C@H]2[C@H](CO)Nc3ccc(C#Cc4ccccc4)cc3[C@H]21,9,1,7.6

# Whole records, quoted from the list. Order of values: DUX4 txn inh	DUX4 txn inh difference	DUX4 txn inh control
# COc1ccccc1-c1cnc2c(c1)C(=O)N([C@@H](C)CO)C[C@@H](C)[C@@H](CN(C)Cc1cncnc1)O2 in the list: -5	-3	-2.2
# O=C(Cc1ccccc1)N1CC[C@H]2[C@H](CO)Nc3ccc(C#Cc4ccccc4)cc3[C@H]21 in the list: 9	1	7.6

# 6 compounds out of the list, ordered by formula weight, low to high.
SMILES,DUX4 txn inh,DUX4 txn inh difference,DUX4 txn inh control
O=C(Cc1ccccc1)N1CC[C@H]2[C@H](CO)Nc3ccc(C#Cc4ccccc4)cc3[C@H]21,9,1,7.6
Cn1cnc(S(=O)(=O)N2CC[C@@H]3[C@H]2c2cc(-c4ccccc4)ccc2N[C@@H]3CO)c1,7,0,7.1
Cc1cccc(-c2ccc([C@@H]3[C@H]4CN(C(=O)c5ccccc5)CC(=O)N4[C@H]3CO)cc2)c1,?,.,.
COc1ccc(C(=O)N2C[C@@H]3[C@H](c4ccccc42)[C@H](CO)N3Cc2ccc(Cl)cc2)cc1,-4,-2,-1.5
COc1ccccc1CNC(=O)C[C@@H]1CC[C@@H]2[C@H](COC[C@@H](O)CN2Cc2ccc3c(c2)OCO3)O1,6,9,-2.6
C[C@@H]1CN([C@H](C)CO)C(=O)Cc2cc(NS(=O)(=O)c3cn(C)cn3)ccc2O[C@H]1CN(C)Cc1ccc2c(c1)OCO2,-6,-6,0.4

# (cont.)
SMILES,DUX4 txn inh,DUX4 txn inh difference,DUX4 txn inh control
CN1c2ccc(-c3ccccc3)cc2[C@@H]2[C@@H](CCN2C(=O)Cc2cccnc2)[C@H]1CO,-8,-15,6.9
N#C[C@H]1[C@@H](c2ccc(C3=CCCCC3)cc2)[C@H](CO)N1C(=O)CN1CCOCC1,-3,0,-2.5
O=C(C[C@@H]1C=C[C@@H](NC(=O)C2CC2)[C@@H](CO)O1)NCc1ccncc1,1,-4,4.4
CCCc1cn(CC[C@H]2CC[C@@H](NC(=O)C3CCOCC3)[C@H](CO)O2)nn1,5,2,2.8
O=C(C[C@@H]1C[C@H]2c3cc(NC(=O)Nc4ccc(C(F)(F)F)cc4)ccc3O[C@H]2[C@@H](CO)O1)NCCc1ccccc1,?,.,.
O=C(C[C@H]1C[C@H]2c3cc(NC(=O)Nc4ccc(C(F)(F)F)cc4)ccc3O[C@H]2[C@@H](CO)O1)NCc1ccc2c(c1)OCO2,-1,-7,6.2
C[C@H](CO)N1C[C@H](C)[C@H](CN(C)C(=O)Cc2ccccc2)OCc2cn(nn2)CCCC1=O,0,-6,6.6
CC(C)C#Cc1ccc([C@@H]2[C@@H](CO)N(C(=O)C3CCOCC3)[C@H]2C#N)cc1,1,-3,4.5
CNC[C@@H]1Oc2ccc(NC(=O)Cc3cn(C)c4ccccc34)cc2C(=O)N([C@H](C)CO)C[C@H]1C,6&0,7&-2,-0.7&2.3
Cc1ccc(S(=O)(=O)Nc2ccc3c(c2)C(=O)N([C@H](C)CO)C[C@H](C)[C@@H](CN(C)S(=O)(=O)c2cccs2)OCCCC[C@H](C)O3)cc1,4,1,3.0
C/C=C/c1ccc([C@@H]2[C@@H](CO)N3C(=O)CN(C(=O)Nc4ccc(F)cc4)C[C@H]23)cc1,3,1,1.9
C[C@@H]1CN([C@@H](C)CO)C(=O)c2ccccc2-c2ccccc2CO[C@@H]1CN(C)C(=O)C1CC1,-2,-4,2.0
CO[C@@H](CN(C)CC1CCOCC1)[C@@H](C)CN(C(=O)Nc1ccc(F)cc1)[C@H](C)CO,0,-1,0.4
O=C(C[C@H]1CC[C@@H]2[C@H](COC[C@H](O)CN2C(=O)c2ccc3c(c2)OCO3)O1)NC1CCC1,4,0,4.3
O=C(C[C@H]1C[C@@H]2c3cc(NS(=O)(=O)c4ccc(F)cc4)ccc3O[C@@H]2[C@@H](CO)O1)N1CCc2ccccc2C1,?,.,.
CNC(=O)C[C@H]1CC[C@@H]2[C@H](COC[C@H](O)CN2Cc2ccncc2)O1,6,2,4.1
C[C@@H]1CN([C@H](C)CO)C(=O)c2cc(C#Cc3cccc(F)c3)cnc2O[C@H]1CN(C)CC1CCCC1,-1,0,-0.9
O=C(C[C@H]1C=C[C@H](NC(=O)Nc2ccc(C(F)(F)F)cc2)[C@@H](CO)O1)NCc1ccccn1,-2,-1,-1.3
COc1ccc2c3c([nH]c2c1)[C@@H](CO)NCC31CN(C(=O)Nc2ccc(F)cc2F)C1,10,-10,20
Cc1ccc(-c2ccc([C@H]3[C@H](CO)N4CCCCN(C)C[C@@H]34)cc2)cc1,9,11,-2.1
CN(C)c1ccc2c(c1)[C@@H]1C[C@@H](CC(=O)NCc3ccccc3F)O[C@H](CO)[C@@H]1O2,11,1,10
N#C[C@@H]1[C@H](c2ccccc2-c2ccccc2F)[C@H](CO)N1C(=O)C1CCOCC1,2,-2,4.1
O=C(Cc1ccccc1)N1CC2(C1)[C@@H](c1ccccc1)[C@H](CO)N2S(=O)(=O)Cc1ccccc1,?,.,.
O=C(C[C@@H]1CC[C@H]2[C@@H](COC[C@H](O)CN2C(=O)Nc2ccc(Cl)cc2)O1)NCC1CCCCC1,?,.,.
O=C(NCC[C@@H]1CC[C@H](NC(=O)C2CCOCC2)[C@@H](CO)O1)c1cc(Cl)cc(Cl)c1,5,7,-2.3
SMILES,DUX4 txn inh,DUX4 txn inh difference,DUX4 txn inh control
C/C=C/c1ccc([C@H]2[C@H](CO)N3C(=O)CN(C(=O)NC4CCCCC4)C[C@@H]23)cc1,11,0,11
O=C(C1CCCCC1)N1C[C@@H]2[C@H](c3ccccc31)[C@H](CO)N2Cc1ccccc1Cl,5,2,3.1
C[C@@H]1CN([C@H](C)CO)C(=O)c2cc(NC(=O)CCC(F)(F)F)ccc2O[C@@H](C)CCCCO[C@H]1CN(C)S(=O)(=O)c1ccccc1,-1,-5,4.2
COc1ccc(CNC(=O)C[C@H]2C[C@@H]3c4cc(N(C)C)ccc4O[C@@H]3[C@H](CO)O2)cc1,1,1,-0.3
CC(=O)N1CC[C@@H]2[C@H]1c1cc(-c3ccccc3)ccc1N(C)[C@@H]2CO,15,11,3.2
CN1c2ccc(-c3ccc(C#N)cc3)cc2[C@@H]2[C@@H](CCN2C(=O)CN2CCOCC2)[C@@H]1CO,14,-2,15
CO[C@H]1CN(C)C(=O)c2ccc(NC(=O)Nc3ccccc3)cc2OC[C@H](C)N(C(=O)CC2CC2)C[C@H]1C,-7,-9,1.8
C[C@@H]1CCCCO[C@H](CN(C)C(=O)Nc2ccc(F)cc2)[C@@H](C)CN([C@@H](C)CO)C(=O)c2cc(NC(=O)NC3CCCCC3)ccc2O1,2,-2,4.5
COc1ccccc1NC(=O)N[C@@H]1C=C[C@H](CC(=O)NCc2ccc(Cl)c(Cl)c2)O[C@@H]1CO,-8,-3,-5.6
Cc1noc(C)c1S(=O)(=O)N1[C@@H]2CNC[C@H]1C2c1ccc(-c2cccc(F)c2)cc1 (some centres not stated),11,11,-0.1
COCC#Cc1ccc([C@@H]2[C@H](CO)N3CCCCN(S(=O)(=O)c4ccccc4F)C[C@@H]23)cc1,-2,-9,6.3
C[C@H](CO)N1C[C@H](C)[C@@H](CN(C)Cc2ccc(Oc3ccccc3)cc2)Oc2ccc(NS(=O)(=O)c3ccc(F)cc3)cc2C1=O,9,6,3.2
COc1ccc2c3c(n(C)c2c1)[C@@H](CO)N(Cc1ccc(F)cc1)CC31CN(C)C1,-1,-1,0.6
O=S(=O)(Cc1ccccc1)N1CCCCN2[C@H](C1)[C@H](c1ccc(-c3cccnc3)cc1)[C@@H]2CO,8,9,-0.4
CCN1[C@@H]2c3ccc(-c4ccc(F)cc4)c(=O)n3C[C@@H]2[C@@H](CO)[C@@H]1C(=O)NCc1ccncn1,1,1,0.1
C[C@H](CO)N1C[C@H](C)[C@H](CN(C)CC2CCCCC2)OCc2cnnn2CCCC1=O,0,-2,2.5
O=C(C[C@H]1CC[C@@H]2[C@H](COC[C@@H](O)CN2C(=O)Nc2ccc(F)cc2)O1)NCCc1ccncc1,5,4,0.9
C/C=C/c1ccc([C@@H]2[C@@H](CN(CC)C(=O)CC)N(C(=O)C3CCC3)[C@H]2CO)cc1,0,2,-1.7
C[C@H](CO)N1C[C@H](C)[C@H](CN(C)C(=O)Nc2ccc(C(F)(F)F)cc2)OCCCC[C@H](C)Oc2ccc(NS(=O)(=O)c3cn(C)cn3)cc2C1=O,-3,2,-4.9
COCCN(C[C@H]1N[C@H](CO)[C@@H]1c1ccc(-c2cccc(C#N)c2)cc1)C(C)=O,-2,-2,0.4
Cc1ccc(S(=O)(=O)N(C)C[C@@H]2OCCCC[C@@H](C)Oc3ccc(NC(=O)c4ccncc4)cc3C(=O)N([C@@H](C)CO)C[C@H]2C)cc1,-7,-4,-3.2
OC[C@@H]1[C@@H](c2ccc(-c3ccccc3F)cc2)[C@H]2CN(Cc3cccnc3)CCCCN12,10,20,-10
COc1ccccc1NC(=O)N[C@H]1CC[C@@H](CCNS(=O)(=O)c2ccc(Cl)cc2)O[C@@H]1CO,-4,-4,-0.1
COc1cccc(CNC(=O)C[C@H]2CC[C@@H]3[C@@H](COc4ccc(NC(C)=O)cc4C(=O)N3C)O2)c1,7,2,4.5
CNC[C@H]1OCCCC[C@H](C)Oc2ccc(NC(=O)Nc3c(C)noc3C)cc2C(=O)N([C@H](C)CO)C[C@@H]1C,-3,0,-2.8
CC(C)C[C@H]1COCn2nncc2CC[C@H](C)C(=O)N1,2,2,-0.9
COc1cccc(-c2ccc([C@@H]3[C@H]4CN(S(=O)(=O)c5cccs5)CCCCN4[C@H]3CO)cc2)c1,-3,-5,2.0
O=C(Nc1ccccc1)[C@@H]1[C@@H](CO)[C@@H]2Cn3c(cccc3=O)[C@@H]2N1Cc1ccccc1Cl,?,.,.
CC(C)NC(=O)N1CC(=O)N2[C@@H](CO)[C@H](c3ccc(C#CCN(C)C)cc3)[C@@H]2C1,6,-8,14
C[C@H](O)C#Cc1cnc2c(c1)C(=O)N([C@@H](C)CO)C[C@H](C)[C@@H](CN(C)C(=O)CN1CCOCC1)O2,4,3,0.9
